Arbovirus anti: arbovirus infection inhibition; arbovirus infection cell-based antiviral screen; 200,000 tested, 0.37% active; inhibition, % at 10 µM;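 active = inhibition from about 30%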;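 also: bluetongue infection of BSR cells; cell survival read as ATP light after 72 h; 0% = infected wells without compound and 100% = uninfected wells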
YopH inh: YopH (Yersinia) phosphatase inhibition; fluorescence Ex485/Em525; inhibition, %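 (about 10 µM by stock and volumes)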; 140,000 tested, 0.16% active;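 active = inhibition of 50% or more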;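 also: controls were vehicle for no effect and minimum signal wells for full effect; inactives centre near -20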
RecA splice inh: inhibitors of M. tuberculosis RecA intein splicing | cell-free RecA intein splicing, fluorescence | 290,000 tested, 0.75% active | inhibition, %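 (about 9 µM by stock and volumes)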 | P9WHJ3 | AID 2221; in the data active = inhibition above about 30%; inconclusive = no clear call, values can overlap the other calls;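 also: 0% = vehicle wells and 100% = reference inhibitor control wells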
Target sequence (P9WHJ3 whole entry, looked up, canonical isoform): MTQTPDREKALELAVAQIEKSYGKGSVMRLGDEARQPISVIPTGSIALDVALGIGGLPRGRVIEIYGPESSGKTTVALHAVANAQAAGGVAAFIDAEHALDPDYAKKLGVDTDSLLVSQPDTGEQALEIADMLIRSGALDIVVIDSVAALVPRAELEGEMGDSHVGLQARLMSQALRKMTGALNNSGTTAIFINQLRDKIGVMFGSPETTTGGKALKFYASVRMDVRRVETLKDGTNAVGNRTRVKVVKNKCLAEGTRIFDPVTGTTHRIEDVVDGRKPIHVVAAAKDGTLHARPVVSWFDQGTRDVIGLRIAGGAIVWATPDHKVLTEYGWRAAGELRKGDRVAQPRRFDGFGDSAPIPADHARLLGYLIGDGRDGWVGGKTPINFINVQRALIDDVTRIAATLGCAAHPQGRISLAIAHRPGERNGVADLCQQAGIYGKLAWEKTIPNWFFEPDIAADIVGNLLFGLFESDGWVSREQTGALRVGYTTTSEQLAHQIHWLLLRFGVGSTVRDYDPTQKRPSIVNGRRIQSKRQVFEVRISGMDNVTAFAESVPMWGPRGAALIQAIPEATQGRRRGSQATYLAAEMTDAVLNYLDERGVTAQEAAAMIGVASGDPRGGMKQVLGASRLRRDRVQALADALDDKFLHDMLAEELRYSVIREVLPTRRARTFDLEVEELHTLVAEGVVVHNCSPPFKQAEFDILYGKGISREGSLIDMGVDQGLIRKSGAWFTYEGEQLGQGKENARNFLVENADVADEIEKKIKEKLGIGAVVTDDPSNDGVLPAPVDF
Mtb betalactam: beta-lactam sensitization of Mtb H37Rv. M. tuberculosis H37Rv growth with meropenem, percent inhibition; hits of this screen are not shown here. inhibition, % at 25 µM. 330,000 tested, 0.27% active. AID 434955;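 active = about 74% or more and at least 40 points above the plate without the antibiotic, then above 30% in a dose series; inconclusive = first-round hits that could not be retested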;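 also: growth measured after seven days incubation then overnight dye step; 0% = bacteria only wells and 100% = bacteria with antibiotic; twin plates without the antibiotic show which effects depend on it; some results filed as inactive read as strong as hits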
Mtb growth: M. tuberculosis H37Rv growth inhibitors, H37Rv strain (AID 1626). M. tuberculosis H37Rv growth inhibition; higher % means a stronger effect. inhibition, % at 10 µM, or IC50 in µM where a hit was titrated. 220,000 tested, 0.95% active;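 active = confirmed in a dose series; inconclusive = inhibition above 80% but not taken into the dose series; inactive = below 80% or under 30% at every dose of the series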;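 also: bacteria incubated seven days before Alamar blue readout; 0% = bacteria only wells and 100% = bacteria with antibiotic wells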
Arbovirus anti repeat: also measured in Arbovirus anti; calls as there; inhibition, %; measured here: 10K subset replicate screen; many hits read low in the repeat;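 first of two repeat runs on a subset; 0% = infected and 100% = uninfected wells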
The depositor's hits bear a star; ? = inconclusive; · = no result given. This is a subset; rates above refer to the full screens.

SMILES	Arbovirus anti	YopH inh	RecA splice inh	Mtb betalactam	Mtb growth	others
Cc1cc(S(=O)(=O)N2CCOCC2)ccc1OCC(=O)Nc1ccccc1F	·	·	3.1	-2	·
FC(F)(F)c1ccccc1CNCc1ccncc1	·	·	-5.6	-10	·
O=C(CN1CCN(C(=O)c2ccco2)CC1)Nc1ccc2c(c1)OCO2	·	-12	0.5	-6	3%
Cc1cc(SCc2ccc(Cl)cc2Cl)nc(=O)[nH]1	·	·	4.0	?	·
O=C(CN1CCCC1)NCC(=O)Nc1ccc(F)cc1	6	·	0.0	-1	-6%
CC(=O)N1CC[n+]2c(-c3ccc(Cl)cc3Cl)csc21	-16	-28	-1.3	3	3%
O=c1[nH]cc(N2CCCCCC2)c(=O)[nH]1	·	·	23	-5	-2%
CC(=O)Nc1ccc(NC(=O)CS(=O)(=O)Cc2ccccc2)cc1	·	·	-2.4	0	·
CCCOc1ccc(C2C(C(=O)OC)=C(C)N=C3SCCC(=O)N32)cc1OCC (stereo not given)	-5	-3	-1.7	-5	0%
O=C(CN(C(=O)c1csnn1)c1ccccc1F)NCc1ccccc1	·	·	3.2	4	·
CCC1CCCCN1CCCCOc1cccc(Cl)c1 (stereo not given)	·	·	-0.6	2	·
c1ccc(SSc2ccccn2)nc1	·	·	-1.2	-3	·
CCc1c(C)sc(NC(=O)Cn2nc(C(F)(F)F)c3c2CCCC3)c1C#N	-5	-22	0.6	4	-1%
CCCCc1nc2cc(C(=O)N3CCN(c4nc(C)cnc4C)CC3)ccc2o1	·	·	-2.0	14	·
CCOc1ccc(-c2n[nH]c(=S)c3ccccc23)cc1	·	·	2.1	-1	·
CCOC(=O)c1cnc(SCC(=O)N2CCc3ccccc32)nc1N	-4	12	1.2	0	-8%
CCCN(CCC)CCSc1nc(O)c(C(C)C)c(=O)[nH]1	15	-29	·	7	6%
CCOC(=O)c1c(C)[nH]c(C)c1C(=O)COC(=O)c1ccc(OC)cc1	12	·	4.4	5	-3%
Cc1ccc(-n2nc3cc(C)c(N)cc3n2)cc1	-6	-6	-86	2	0%
CCOc1c(C)cc(S(=O)(=O)NCc2cccnc2)c(C)c1C	·	·	-0.3	-3	·
Cc1cccc(N(CC(N)=O)C2SC(=O)NC2=O)c1 (stereo not given)	-2	21	-2.3	-4	2%
CCOc1ccc(NC(=O)COC(=O)c2c(OC)cccc2OC)cc1	-8	-35	-3.7	70	60%
CCOc1ccccc1C(=O)N(C)CC(=O)Nc1ccc(OC)cc1	·	·	-1.0	-2	·
COc1ccc(S(=O)(=O)Cc2ccc(C(=O)NC3CCCCC3)o2)cc1	·	·	-1.3	2	·
Cc1ccccc1C(=O)Nc1ccc(O)c2c(=O)cc(-c3ccccc3Cl)oc12	·	·	-1.0	-2	-10%
CC(=O)OC1C2CCC1C([N+]1(C)CCCCC1)CC2 (stereo not given)	2	·	0.7	-3	4%
CN(C)c1ccc(/C=N\NC(=S)SCN2C(=O)C3CCC(C)(C2=O)C3(C)C)cc1 (stereo not given)	-16	9	·	-11	2%
COc1ccc(C2C=C(c3ccc(Cl)cc3)Nc3nc(NC(C)=O)nn32)cc1 (stereo not given)	9	-29	·	-2	·
O=C(O)c1ccc(N2C(=O)/C(=C\c3ccccc3)N=C2c2ccccc2)cc1	·	·	-0.2	0	11%
CC1CN(c2nc(-c3ccc(Br)cc3)nnc2-c2ccccc2)CC(C)N1 (stereo not given)	-44	-21	-6.0	-9	·
COC(=O)C1=C(c2ccc(S(C)(=O)=O)cc2)C[C@@H]2CC[C@H]1N2C(=O)NCC1CC1	·	·	-0.6	4	-2%
NNC(=O)c1cncc(Br)c1	·	·	·	13	0%
O=S(=O)(c1ccc(Cl)c(NC(=S)N/N=C/c2c(F)cccc2F)c1)N1CCOCC1	-10	-20	1.7	2	0%
COCCCN1CC23C=CC(O2)C(C(=O)O)C3C1=O (stereo not given)	6	-20	0.9	5	-12%	Arbovirus anti repeat=-3
CCCn1cnc2c(cnn2-c2ccc(F)cc2)c1=O	10	-41	-2.0	-17	-2%
Cc1cc(OCC(=O)NCc2ccncc2)ccc1Cl	6	·	-0.7	-9	-3%
N#CC1CCN(C(=O)c2ccc3c(Cl)c4c(nc3c2)CCCC4)CC1	·	·	4.1	3	·
Cc1noc(NS(=O)(=O)c2ccc(N/C=C/C(=O)c3ccc(F)cc3)cc2)c1C	1	·	-2.2	8	27%
Fc1ccc(CCNCc2ccccc2Cl)cc1	-1	11	0.5	-4	8%
COc1ccc(-c2nc(C#N)c(N3CCCCCC3)o2)cc1OC	-12	-3	-0.1	7	20%
Cc1ccc(NC(=O)CS(=O)CC(=O)N(c2ccccc2)C(C)C(=O)NC2CCCC2)cc1 (stereo not given)	3	-19	5.4	7	-5%
Cc1cc(C)c(OCC(=O)OCC(=O)NCc2cccs2)c(C)c1	·	·	1.7	8	·
O=C(NCc1ccccc1)c1noc2c1CCCCC2	-8	-44	-6.4	-17	0%
O=C(COc1ccc(OCc2ccccc2)cc1)NC1CCOC1=O (stereo not given)	-2	-7	-1.0	-7	-2%
COc1ccc(C2N3CC4(C)CN2CC(C)(C3)C4O)cc1 (stereo not given)	-5	-17	-0.4	-1	-8%	Arbovirus anti repeat=5
CC(C)(C)c1ccc(Cn2c(=N)n(CC(O)c3ccco3)c3ccccc32)cc1 (stereo not given)	-34	·	·	99	-2%
Cc1c(C(=O)NCCN2CCOCC2)sc2nc(-c3ccc(F)cc3)cn12	·	27	-1.0	4	-3%
CCOC(=O)c1ccccc1NC(=O)c1cc2ccccc2o1	·	·	1.2	9	·
COc1ccccc1NC(=O)CC1C(=O)Nc2c1c(=O)n(C)c(=O)n2C (stereo not given)	13	-31	-0.9	-4	-9%
COc1ccc(CCNC(=O)c2ccc(CS(=O)(=O)c3ccc(Br)cc3)o2)cc1OC	25	·	0.2	1	9%

The list goes on; the last two above are carried over.
SMILES	Arbovirus anti	YopH inh	RecA splice inh	Mtb betalactam	Mtb growth	others
COc1ccccc1NC(=O)CC1C(=O)Nc2c1c(=O)n(C)c(=O)n2C (stereo not given)	13	-31	-0.9	-4	-9%
COc1ccc(CCNC(=O)c2ccc(CS(=O)(=O)c3ccc(Br)cc3)o2)cc1OC	25	·	0.2	1	9%
Cc1ccc(C2(C)NC(=O)N(CC(=O)c3ccc(Cl)s3)C2=O)cc1 (stereo not given)	8	-8	2.8	86	-5%
CCOc1ccc(S(=O)(=O)NCCC(=O)N2CCN(Cc3ccccc3)CC2)cc1	·	·	-2.2	-13	·
Cc1ccc(NC(=O)CN2C(=O)/C(=C3\SC(=S)N(C4CCS(=O)(=O)C4)C3=O)c3ccccc32)cc1 (stereo not given)	18	-8	·	·	-12%
CCCCOC(=O)CCc1c(C)n[nH]c1C	·	·	1.6	1	-15%
COc1ccc2c(c1)CCc1c(C(=O)N(C)c3ccccc3)noc1-2	-6	·	-6.1	-4	-3%
Cc1ccc(NC2=CC(=O)CCC2)cc1C	4	0	-3.7	-9	-4%
Cc1oc2ccc(OC(C(=O)O)c3ccccc3)cc2c1C(=O)O (stereo not given)	·	·	1.4	?	·
Cc1nnc(C)n1/N=C/c1ccc(C(C)C)cc1	-4	-44	-1.5	-2	15%
O=C(NCCCC1CCCC1)C1CCC(=O)N(Cc2cccc(F)c2)C1 (stereo not given)	·	·	1.8	0	·
CC(C)CCNC(=O)CCn1nc(-c2ccc(Cl)cc2)ccc1=O	·	·	-0.8	-9	·
COc1cc(CNc2ccc3[nH]c(=O)[nH]c3c2)ccc1OCC(=O)NC(C)(C)C	7	2	1.5	52	-10%
Cc1ccc(NC(=O)CN(C)Cc2nc3c(Br)cc(Br)cc3c(=O)[nH]2)cc1	-19	·	3.5	37	7%
O=C1COc2ccc(C(=O)COC(=O)c3cc(S(=O)(=O)N4CCOCC4)ccc3F)cc2N1	·	·	1.3	-9	·
O=C(c1ccc(Br)o1)N1CCCc2ccccc21	6	-2	2.5	6	17%
CCOC(=O)N1CCC(NC(=O)c2sc(-n3cccc3)nc2C)CC1	3	-30	-8.7	-1	-8%
CC(C)c1ccc(OCCCCN2CCCCC2)cc1	·	·	0.0	-4	·
CCC1S/C(=C(\C#N)C(=O)NCc2ccco2)N(c2ccc(Br)cc2)C1=O (stereo not given)	2	10	9.3	-12	9%
COc1cccc(NC(=O)COC(=O)CCCc2c[nH]c3ccccc23)c1	8	14	7.7	5	-1%
N#C/C(C(=O)Nc1ccc(Cl)cc1)=C(/S)Nc1ccccc1	·	·	4.6	0	·
CCOc1cc(/C=N/N2CCOCC2)ccc1OCc1ccc(C(=O)OC)o1	11	·	3.6	-1	5%

Sorted by molecular weight (falling): some entries from above.
SMILES	Arbovirus anti	YopH inh	RecA splice inh	Mtb betalactam	Mtb growth	others
Cc1ccc(NC(=O)CN(C)Cc2nc3c(Br)cc(Br)cc3c(=O)[nH]2)cc1	-19	·	3.5	37	7%
CCC1S/C(=C(\C#N)C(=O)NCc2ccco2)N(c2ccc(Br)cc2)C1=O (stereo not given)	2	10	9.3	-12	9%
COc1cccc(NC(=O)COC(=O)CCCc2c[nH]c3ccccc23)c1	8	14	7.7	5	-1%
CCOC(=O)N1CCC(NC(=O)c2sc(-n3cccc3)nc2C)CC1	3	-30	-8.7	-1	-8%
N#C/C(C(=O)Nc1ccc(Cl)cc1)=C(/S)Nc1ccccc1	·	·	4.6	0	·
O=C(c1ccc(Br)o1)N1CCCc2ccccc21	6	-2	2.5	6	17%
CC(C)c1ccc(OCCCCN2CCCCC2)cc1	·	·	0.0	-4	·

(continued)
SMILES	Arbovirus anti	YopH inh	RecA splice inh	Mtb betalactam	Mtb growth	others
O=C(CCc1ccc(S(=O)(=O)NCc2ccccc2)cc1)NCc1ccc2c(c1)OCO2	-12	-36	-2.1	1	13%
CCOC(=O)c1sc(=S)n(CC)c1NC(=O)c1ccccc1	·	·	0.0	-2	-5%
CC(C)c1ccc(CN2CCC(C(=O)NCc3cccnc3)CC2)cc1	-1	-17	-0.1	-1	-9%
O=C(O)C1CCN(S(=O)(=O)c2ccc(N3CCC(O)CC3)c([N+](=O)[O-])c2)CC1	·	·	-0.8	4	·
CC(C)C1=C2OC(N)=C(C#N)C(C#N)=C2C(C)CC1 (stereo not given)	13	40	-33	2	-1%
CCCCc1nc(N2CCOCC2)c(C#N)c2c1CCCC2	8	-5	4.5	5	19%
N#Cc1c(-c2ccccc2)nc2n(c1=O)CCS2	1	-8	-0.9	5	-7%
CCOC(=O)c1[nH]c2ccc(F)cc2c1NC(=O)C(C)N1CCc2cc(OC)c(OC)cc2C1 (stereo not given)	-21	-1	4.1	59	-2%
COC(=O)c1ccc2[nH]c(CO)c(-c3ccccc3)c2c1	·	·	-3.3	66	·
COc1cccc(NC(=O)N2CCC3(CC2)OCCO3)c1	1	-9	0.4	-7	2%
Oc1ccc2ccccc2c1Br	-1	·	0.6	-2	-4%
CN1C(=O)C(Cl)(Cl)C(=O)c2ccccc21	2	-27	-5.4	·	-2%
CC(C)(C)Nc1nc(-c2ccccn2)nc2ccccc12	·	·	4.5	82	·
O=C(N/N=C/c1sc(N2CCOCC2)nc1-c1ccccc1)c1ccccc1F	·	·	-1.4	1	-8%
O=C(CN1C(=O)CC(c2ccco2)Sc2ccccc21)Nc1ccc2c(c1)OCCO2 (stereo not given)	1	-23	1.0	3	-1%
CCOCCCNC(=O)c1ccc(N2CC3CC(C2)c2cccc(=O)n2C3)c(NC(=O)Nc2cccc(OC)c2)c1 (stereo not given)	·	·	0.0	4	·
O=C(NCc1cccs1)c1ccc(Cl)s1	0	-12	-1.4	29	7%
CC1=C(C(=O)NCCN2CCN(C)CC2)C2(CCC(C)CC2)OC1=O (stereo not given)	1	3	-1.2	-6	-6%
CCOC(=O)C1(Cc2cccc(Cl)c2)CCCN(C(=O)c2ccoc2C)C1 (stereo not given)	·	·	5.3	2	·
CCOc1ccc(N2C(=O)c3ccccc3C2O)cc1 (stereo not given)	18	-32	16	5	5%	Arbovirus anti repeat=9
CCCn1nnc(NC(=O)c2cc3ccccc3o2)n1	4	16	1.5	8	1%
Cc1ccc(S(=O)(=O)Cc2ccc(C(=O)N3CCCCCC3)o2)cc1	3	-20	·	4	-5%	Arbovirus anti repeat=0
COc1ccccc1NC(=S)N/N=C1\CC(C)(C)Oc2ccc(O)cc21	4	·	-20	-4	-1%
Cc1ccc(C(=O)CSc2nc3ccccc3c(=O)n2N)o1	1	-37	0.8	-6	-6%
CC(C)c1cc(-c2n[nH]c(=S)n2Cc2ccccc2)cs1	-6	-39	1.7	-13	8%
Cc1cccc(NC(=S)/N=C(\N)Nc2nc(C)c3ccccc3n2)c1	21	-23	1.0	2	16%
O=C(NC(=S)Nc1c(F)cc(F)cc1Br)c1ccc2c(c1)OCCO2	0	·	1.1	-11	7%
Cc1ccc(O)c(CNc2nc3ccccc3n2C)c1	8	24	2.4	-39	8%
O=C(NCCCN1CCOCC1)c1ccc2c(c1)N(Cc1c(F)cccc1Cl)C(=O)CS2	·	·	-0.8	-1	·
